# FGF22 binding = FGF22 (human) thermal shift binding; Q9HCT0; recombinant FGF22 thermal shift, SYPRO orange fluorescence; percent of sucrose octasulfate shift, DMSO zero; calls only at 9.99 µM; actives 1.5% (n = 340,000); AID 651658;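 active means melting point raised past a set limit in the mean and every replicate; three in four hits are not shown here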
# Target sequence (Q9HCT0 whole entry, looked up): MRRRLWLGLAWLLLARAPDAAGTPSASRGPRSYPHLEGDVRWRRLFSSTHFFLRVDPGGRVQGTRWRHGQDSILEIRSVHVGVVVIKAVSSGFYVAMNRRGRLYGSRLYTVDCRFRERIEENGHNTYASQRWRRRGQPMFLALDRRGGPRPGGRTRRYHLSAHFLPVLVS
# Ecoli rRNA inh = inhibitors of bacterial rRNA selective over humanized ribosomes; AID 720706; E. coli WT GFP vs humanized-ribosome RFP mutants, fluorescence, 24 h; stronger effect = lower value; DMSO median 0, no signal -100; actives 1.6% (n = 350,000); GFP signal change (wild-type ribosome), % (test concentration not listed);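 active means significant combined selectivity score with lowered wild-type GFP, culture density cut under 30%, mutant RFP and density less affected; inactive means any of these conditions unmet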; further: one replicate is shown; some compounds called inactive have numbers as strong as hits
# MLL AF4-AF9 inh = MLL-AF4/AF9 protein interaction inhibition. P42568. AlphaScreen, biotin-AF4 peptide binding to FLAG-AF9. inhibition, % at 10 µM. actives 0.47% (n = 350,000). AID 651704;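 active means every replicate reaching a set inhibition limit, whatever the replicate mean, cut at about 25% in these data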;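 further: 0% = plate neutral control median and 100% = total signal loss; the record names both 10 and 1 µM as test concentration; the first replicate is given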
# Target sequence (P42568 whole entry, looked up): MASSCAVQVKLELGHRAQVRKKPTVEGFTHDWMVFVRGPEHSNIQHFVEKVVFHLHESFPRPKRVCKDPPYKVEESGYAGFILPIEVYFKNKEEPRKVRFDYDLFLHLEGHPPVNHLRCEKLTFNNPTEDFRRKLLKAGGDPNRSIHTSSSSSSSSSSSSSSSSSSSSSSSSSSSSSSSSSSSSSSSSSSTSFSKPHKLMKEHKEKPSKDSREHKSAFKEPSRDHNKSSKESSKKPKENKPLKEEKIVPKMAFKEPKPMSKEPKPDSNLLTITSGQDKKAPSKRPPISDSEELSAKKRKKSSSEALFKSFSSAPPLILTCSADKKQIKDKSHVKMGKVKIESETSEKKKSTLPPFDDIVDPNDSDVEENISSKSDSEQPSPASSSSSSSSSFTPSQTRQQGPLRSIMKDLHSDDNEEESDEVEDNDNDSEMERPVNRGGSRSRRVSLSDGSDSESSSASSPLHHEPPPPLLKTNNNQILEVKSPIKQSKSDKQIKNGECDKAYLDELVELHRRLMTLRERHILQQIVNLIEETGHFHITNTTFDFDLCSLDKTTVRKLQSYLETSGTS
# Ecoli rRNA inh OD600 = further read-out of Ecoli rRNA inh, marked with its call; OD600 change, %; measured here: OD600 growth;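 optical density of the mix in the first replicate; 0 = DMSO median and -100 = no signal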
# Ecoli rRNA inh RFP = second read-out of Ecoli rRNA inh, no call of its own (marks repeat the call); RFP signal change, %; measured here: RFP humanized mutant strains;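 first replicate; 0 = DMSO median and -100 = no signal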
# The depositor's hits bear a star; i = inactive; & = joins results of further samples. This is a subset; the hit share may differ from the screen's.
cpd	Ecoli rRNA inh	MLL AF4-AF9 inh	Ecoli rRNA inh RFP	Ecoli rRNA inh OD600	FGF22 binding	canonical_smiles
1	-3	2.1	2.5	5	i	N#C[C@H]1[C@H](c2ccc(C3=CCCC3)cc2)[C@H](CO)N1c1nc(-c2ccccc2)cs1
2	1	-0.3	-2.5	1	i	C[C@@H]1CN([C@H](C)CO)C(=O)c2cc(NS(=O)(=O)c3cccs3)ccc2O[C@H]1CN(C)Cc1ccc(C(=O)Nc2ccccc2N)cc1
3	4	-0.2	0.7	15	i	O=C1NC(=O)C2C3OC(C(Br)C3Br)C12 (configuration not stated)
4	-16	-6.8	10	-25	i	CC(O)(c1ccc(F)c(F)c1)c1nc(-c2ccc3ccccc3c2)cs1 (configuration not stated)
5	0	0.0	-5.0	5	i	C[C@@H]1CCCCO[C@@H](CN(C)S(=O)(=O)c2cn(C)cn2)[C@@H](C)CN([C@@H](C)CO)C(=O)c2cc(NC(=O)CCCN(C)C)ccc2O1
6	6	1.8	1.4	-17	i	CCOC(=O)CC1=CCc2c1ccc(OC)c2OC
7	2	-2.3	-3.0	10	i	CCCNC(=O)C[C@@H]1CC[C@H]2[C@@H](COC[C@H](O)CN2Cc2cccc(F)c2)O1
8	3	-1.2	1.1	0	i	COc1ccc(C(C)(O)c2nc(-c3cccc(C(=O)O)c3)cs2)cc1 (configuration not stated)
9	-5	2.3	-0.7	-5	i	C[C@H](CO)N1C[C@H](C)[C@H](CN(C)C(=O)Cc2cccnc2)Oc2cc(C#CC3(O)CCCC3)ccc2S1(=O)=O
10	1	14	5.3	-3	i	C[C@@H]1CN([C@@H](C)CO)C(=O)c2cc(NC(=O)Nc3ccc4c(c3)OCO4)ccc2O[C@H]1CN(C)Cc1ccc(Oc2ccccc2)cc1
11	10	3.8	4.0	10	i	CC(=O)Nc1ccc(CN(C)c2c(C)nc3ccc(C(=O)N4CCN(c5ccccc5)CC4)cn23)cc1
12	-1	-3.7	0.8	-2	i	CO[C@@H]1CN(C)C(=O)c2cc(NS(C)(=O)=O)ccc2OC[C@@H](C)N(CCC(F)(F)F)C[C@H]1C
13	-8	1.6	1.7	2	i	C[C@H]1CN([C@@H](C)CO)C(=O)c2cc(/C=C/c3ccccc3)cnc2O[C@@H]1CN(C)S(=O)(=O)c1ccccc1
14	1	-1.6	-4.4	7	i	C[C@@H]1CN([C@H](C)CO)C(=O)c2cc(-c3cccc(C#N)c3)cnc2O[C@H]1CN(C)Cc1ccncc1
15	-1	-0.4	-0.8	-8	i	O=C(NC1CCC1)[C@@H]1[C@@H](CO)[C@@H]2Cn3c(ccc(C4=CCCC4)c3=O)[C@@H]2N1C(=O)C1CCCC1
16	10	-0.7	0.3	16	i	C[C@H]1CN([C@@H](C)CO)S(=O)(=O)c2ccc(Br)cc2O[C@H]1CN(C)CC1CC1
17	1	-2.1	-5.1	6	i	O=C(C[C@@H]1C=C[C@H](NS(=O)(=O)c2ccc(F)cc2)[C@@H](CO)O1)NC1CCC1
18	2	0.2	3.1	6	i	COc1ccc(S(=O)(=O)N(C)C[C@@H]2Oc3ccc(NS(=O)(=O)c4cccs4)cc3C(=O)N([C@H](C)CO)C[C@@H]2C)cc1
19	-1	-16	-3.0	12	i	Cc1ccnc(NC(=O)c2ccc(OCc3c(C)noc3C)cc2)c1
20	0	4.1	0.6	-1	i	C[C@H](CO)N1C[C@H](C)[C@@H](CN(C)CC2CCCCC2)Oc2ccc(NC(=O)C3CC3)cc2CC1=O
21	-9	0.4	-1.5	14	i	COc1ccc([C@H]2N[C@]3(CCCN(Cc4ccc(Cl)cc4)C3=O)[C@H]3C(=O)N(Cc4ccccc4)C(=O)[C@@H]23)cc1
22	1	-2.6	0.4	7	i	C[C@@H]1CN([C@H](C)CO)C(=O)c2cc(NC(=O)Cc3ccccc3)ccc2O[C@@H]1CN(C)S(=O)(=O)c1cn(C)cn1
23	-1	2.2	14	-3	i	C[C@@H]1CN([C@@H](C)CO)C(=O)c2cc(NC(=O)c3ccccc3)ccc2O[C@@H](C)CCCCO[C@@H]1CN(C)Cc1ccc2c(c1)OCO2
24	2	0.4	-3.1	-3	i	CN(C)C(=O)C[C@@H]1C[C@@H]2c3cc(NC(=O)c4ccc5c(c4)OCO5)ccc3O[C@@H]2[C@H](CO)O1
25	2	-0.3	-1.6	-4	i	CCCNC(=O)N[C@@H]1CC[C@H](CCn2cc(-c3cccc(F)c3)nn2)O[C@@H]1CO
26	-2	-12	-1.3	-7	i	C[C@H](CO)N1C[C@H](C)[C@@H](CN(C)C(=O)c2ccncc2)Oc2cc(C#CC3CC3)ccc2S1(=O)=O
27	-4	7.9	0.4	-3	i	C[C@@H]1CCCCO[C@H](CN(C)C(=O)C2CCCCC2)[C@H](C)CN([C@@H](C)CO)C(=O)c2cc(NS(C)(=O)=O)ccc2O1
28	1	-13	-4.9	13	i	COc1cccc(-c2cnc3c(c2)C(=O)N([C@H](C)CO)C[C@H](C)[C@H](CN(C)C(=O)CN(C)C)O3)c1
29	-9	-4.2	-2.3	-39	i	CO[C@@H](CN(C)S(=O)(=O)c1ccc(C)cc1)[C@H](C)CN([C@@H](C)CO)S(=O)(=O)c1cccc(Cl)c1
30	-19*	1.3	5.2*	-8.5*	i	CC(=O)c1ccc(-c2cccc([C@H]3[C@@H]4C=CC[C@@H](C)[C@@H]4C(=O)N3Cc3ccccc3)c2)cc1
31	3	-1.8	-0.6	6	i	C[C@@H]1CN([C@H](C)CO)C(=O)c2cc(C#C[C@@H](C)O)cnc2O[C@@H]1CN(C)C(=O)CC1CC1
32	-12	1.2	1.7	-11	i	C[C@H](CO)N1C[C@H](C)[C@H](CN(C)Cc2ccc(Cl)c(Cl)c2)Oc2ccc(NC(=O)c3ccncc3)cc2CC1=O
33	0	-0.3	0.0	-4	i	C[C@@H]1CCCCO[C@@H](CN(C)C(=O)Nc2ccccc2)[C@H](C)CN([C@H](C)CO)C(=O)c2cc(NC(=O)Nc3ccccc3)ccc2O1
34	0	-0.2	1.2	-18	i	O=C(NC1CCCCC1)N1CC2(C1)[C@H](c1ccccc1)[C@@H](CO)N2S(=O)(=O)Cc1ccccc1
35	5	0.4	2.4	6	i	CC(C)NC(=O)N(C)C[C@@H]1Oc2ccc(NC(=O)c3ccncc3)cc2C(=O)N([C@@H](C)CO)C[C@@H]1C
36	0	-4.9	-2.9	7	i	CCCNC(=O)N(C)C[C@@H]1Oc2ncc(C#CC(C)C)cc2C(=O)N([C@H](C)CO)C[C@@H]1C
37	3	0.1	0.1	-14	i	COc1ccc(S(=O)(=O)N(C)C[C@H]2Oc3ccc(NS(=O)(=O)c4ccccc4)cc3CC(=O)N([C@@H](C)CO)C[C@H]2C)cc1
38	-1	0.0	-2.8	3	i	C[C@@H]1CN([C@@H](C)CO)C(=O)c2cc(NC(=O)Nc3ccc4c(c3)OCO4)ccc2O[C@@H](C)CCCCO[C@@H]1CN(C)S(=O)(=O)c1ccccc1
39	3	-3.4	5.6	-23	i	Cc1ccccc1-c1ccc([C@@H]2[C@H]3CN(S(C)(=O)=O)CCCCN3[C@H]2CO)cc1
40	-9	1.1	5.2	-13	i	C[C@@H]1CN([C@@H](C)CO)S(=O)(=O)c2ccc(-c3ccc(F)cc3)cc2O[C@@H]1CN(C)C(=O)c1ccccc1F
41	3	-7.1	0.8	2	i	CC(C)CC#Cc1cnc2c(c1)C(=O)N([C@@H](C)CO)C[C@@H](C)[C@@H](CN(C)C(=O)Cc1cccnc1)O2
42	3	-2.6	-1.4	4	i	COCC(=O)N1CC2(C1)[C@H](c1ccccc1)[C@H](CO)N2C(=O)c1ccncc1
43	-59	-0.1	-20	-82	i	O=C(C[C@@H]1CC[C@@H]2[C@H](COC[C@H](O)CN2C(=O)Nc2ccc(C(F)(F)F)cc2)O1)NCCc1ccncc1
44	-17	-1.8	10	-62	i	CN1c2ccc(Br)cc2[C@H]2[C@H](CCN2C(=O)Nc2cc(F)ccc2F)[C@H]1CO
45	-1	2.1	0.6	2	i	C[C@H](CO)N1C[C@H](C)[C@H](CN(C)S(=O)(=O)c2ccccc2C#N)OCc2ccccc2-c2c(n(C)c3ccccc23)C1=O
46	-3	8.1	2.9	-12	i	Cc1noc(C)c1NC(=O)Nc1ccc2c(c1)C(=O)N([C@H](C)CO)C[C@H](C)[C@H](CN(C)Cc1ccc(C(F)(F)F)cc1)OCCCC[C@H](C)O2
47	12	1.9	-3.4	6	i	CNC(=O)C[C@@H]1C(=O)N(c2ccc(OC)cc2)CC1(C)C
48	2	-3.3	1.9	-2	i	CC(=O)N(C)C[C@@H]1Oc2cc(C#Cc3ccncc3)ccc2S(=O)(=O)N([C@H](C)CO)C[C@@H]1C
49	-4	-0.7	2.0	-3	i	CO[C@@H]1CN(C)C(=O)c2ccc(NC(=O)Nc3cc(F)ccc3F)cc2OC[C@@H](C)N(C(=O)c2ccccn2)C[C@@H]1C
50	0	-0.9	22	-34	i	O=C(C1CCCCC1)N1C[C@H](O)[C@@H](n2cc(-c3ccc(F)cc3)nn2)C[C@@H]1c1ccccc1

# Four compounds already listed, arranged by their value in Ecoli rRNA inh OD600, falling:
item	molecule	Ecoli rRNA inh	MLL AF4-AF9 inh	Ecoli rRNA inh RFP	Ecoli rRNA inh OD600	FGF22 binding
14	C[C@@H]1CN([C@H](C)CO)C(=O)c2cc(-c3cccc(C#N)c3)cnc2O[C@H]1CN(C)Cc1ccncc1	1	-1.6	-4.4	7	i
20	C[C@H](CO)N1C[C@H](C)[C@@H](CN(C)CC2CCCCC2)Oc2ccc(NC(=O)C3CC3)cc2CC1=O	0	4.1	0.6	-1	i
25	CCCNC(=O)N[C@@H]1CC[C@H](CCn2cc(-c3cccc(F)c3)nn2)O[C@@H]1CO	2	-0.3	-1.6	-4	i
26	C[C@H](CO)N1C[C@H](C)[C@@H](CN(C)C(=O)c2ccncc2)Oc2cc(C#CC3CC3)ccc2S1(=O)=O	-2	-12	-1.3	-7	i

# Next records.
cpd	Ecoli rRNA inh	MLL AF4-AF9 inh	Ecoli rRNA inh RFP	Ecoli rRNA inh OD600	FGF22 binding	canonical_smiles
51	-4	5.9	2.4	-3	i	COc1ccc(NC(=O)N[C@H]2CC[C@@H](CCNC(=O)Nc3cc(F)ccc3F)O[C@H]2CO)cc1
52	-4	-4.1	3.4	-2	i	O=C(c1cccc(F)c1)N1CCCCN2[C@H](CO)[C@H](c3ccc(-c4cccnc4)cc3)[C@@H]2C1
53	-1	2.8	-1.3	-8	i	CCCC#Cc1ccc2c(c1)O[C@H](CN(C)C(=O)CC)[C@@H](C)CN([C@H](C)CO)S2(=O)=O
54	3	-9.9	-1.1	8	i	CC(C)NC(=O)N[C@H]1C=C[C@@H](CC(=O)NC2Cc3ccccc3C2)O[C@H]1CO
55	10	-1.1	4.1	35	i	COc1cc(CNC(=O)c2cc(-c3cc(C)cc(F)c3)n[nH]2)cc(OC)c1
56	-11	3.6	-1.0	-30	i	COc1ccc(-c2noc(CCC(=O)N3CCN(c4ccccc4OC)CC3)n2)cc1
57	2	0.2	0.3	0	i	CCCNC(=O)N1CC2(CCN(C(=O)Cc3cccnc3)CC2)c2c([nH]c3cc(OC)ccc23)[C@@H]1CO
58	0	-8.0	-0.8	-7	i	CCC(=O)N(C)C[C@H]1Oc2cc(-c3ccncc3)ccc2S(=O)(=O)N([C@@H](C)CO)C[C@H]1C
59	13	-8.1	-2.1	19	i	CC(=O)c1c(C)[nH]c(C(=O)OC(C)C(=O)NC2CCCCC2)c1C (configuration not stated)
60	2	-1.7	-1.4	3	i	COc1cccc(NC(=O)C[C@H]2CC[C@H]3[C@@H](COc4ccc(NC(=O)c5ccccc5F)cc4C(=O)N3C)O2)c1
61	-3&-2	3.0	3.0&0.5	1&-2	i	CO[C@@H]1CN(C)C(=O)c2ccc(NC(=O)Nc3cccc(F)c3)cc2OC[C@H](C)NC[C@H]1C
62	0	-0.7	0.9	7	i	O=C(C[C@H]1CC[C@@H]2[C@H](COC[C@H](O)CN2C(=O)c2ccccc2)O1)NC1Cc2ccccc2C1
63	2	-2.6	-4.6	-1	i	C[C@@H]1CN([C@H](C)CO)C(=O)c2cc(NS(=O)(=O)c3ccccc3)ccc2O[C@@H](C)CCCCO[C@@H]1CN(C)C(=O)c1ccncc1
64	-7	2.3	-0.2	-19	i	C[C@@H]1CN([C@@H](C)CO)S(=O)(=O)c2ccc(C3=CCCCC3)cc2O[C@H]1CN(C)C(=O)Cc1ccccc1

# Four entries from above, ordered by count of non-hydrogen atoms, descending:
cpd	Ecoli rRNA inh	MLL AF4-AF9 inh	Ecoli rRNA inh RFP	Ecoli rRNA inh OD600	FGF22 binding	canonical_smiles
46	-3	8.1	2.9	-12	i	Cc1noc(C)c1NC(=O)Nc1ccc2c(c1)C(=O)N([C@H](C)CO)C[C@H](C)[C@H](CN(C)Cc1ccc(C(F)(F)F)cc1)OCCCC[C@H](C)O2
23	-1	2.2	14	-3	i	C[C@@H]1CN([C@@H](C)CO)C(=O)c2cc(NC(=O)c3ccccc3)ccc2O[C@@H](C)CCCCO[C@@H]1CN(C)Cc1ccc2c(c1)OCO2
31	3	-1.8	-0.6	6	i	C[C@@H]1CN([C@H](C)CO)C(=O)c2cc(C#C[C@@H](C)O)cnc2O[C@@H]1CN(C)C(=O)CC1CC1
17	1	-2.1	-5.1	6	i	O=C(C[C@@H]1C=C[C@H](NS(=O)(=O)c2ccc(F)cc2)[C@@H](CO)O1)NC1CCC1

# From PubChem
